# CBX7 AlphaScr: inhibitors of human CBX7 binding to H3K27me3 peptide. O95931. AlphaScreen His6-CBX7 / biotin-H3K27me3 peptide binding; stronger effect = lower value. normalised signal (fraction of DMSO) (test concentration not listed). 66,000 compounds, 1.1% hits. AID 1224903; in the data active means normalised signal below about 0.5;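 further: 100 nL library stock added to about 20 µL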
# Target sequence (O95931 whole entry, looked up): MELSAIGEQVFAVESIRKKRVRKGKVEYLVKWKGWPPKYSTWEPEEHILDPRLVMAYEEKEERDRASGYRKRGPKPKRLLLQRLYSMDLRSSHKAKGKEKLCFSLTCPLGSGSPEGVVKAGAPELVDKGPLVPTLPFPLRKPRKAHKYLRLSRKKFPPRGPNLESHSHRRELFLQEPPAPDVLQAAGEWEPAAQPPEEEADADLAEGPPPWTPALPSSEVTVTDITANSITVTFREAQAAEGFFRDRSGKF
# CBX7 AlphaScr z-score: further read-out of CBX7 AlphaScr, marked with its call; z-score; measured here: z-score of CBX7 signal; some inactives read as strong as hits; reference of the scale not given here;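 same signal on another scale; lower means less binding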
# Starred values were filed as active, the others as inactive.
SMILES,CBX7 AlphaScr,CBX7 AlphaScr z-score
COc1ccccc1CNC(=O)Cn1ncc2c1-c1ccccc1OC2,1,0.3
CCOCCCNC(=O)CCN1C(=O)COc2ccccc21,1.1,3.6
CCCNC(=O)Cn1cnc2sc(C(=O)Nc3ccccc3OCC)c(C)c2c1=O,1,0.66
Cc1ccc(C(c2sc3nc(C)nn3c2O)N2CCN(CCO)CC2)cc1 (configuration not stated),1,2.3
Cc1ccc2cc(NC(=O)c3cccc(F)c3)ccc2n1,0.96,-1.2
CCOc1ccccc1NC(=O)CNC(=O)Cn1cnc2ccccc2c1=O,0.78,-6.2
Cn1c2ccccc2c2c(C(=O)NCc3ccc(F)cc3)cn(C3CCCCC3)c(=O)c21,0.92,-1.9
Cc1ccc(C(=O)Nc2cccc(-c3nc4ncccc4o3)c2C)cc1C,1,0.46
CCOC(=O)c1cccc(NC(=O)c2c(-c3ccccc3Cl)noc2C)c1,0.95,-1.1
NS(=O)(=O)c1ccc(CCNC(=O)C2CCN(c3nc4ccccc4[nH]3)CC2)cc1,1.1,0.76
Cc1ccc(CSc2oc(-c3cccs3)nc2S(=O)(=O)c2ccc(Cl)cc2)cc1,0.99,-0.011
Cc1ccc(CN2C(=O)C(C(C)C(=O)NCCCSC3CCCCC3)Sc3ccccc32)cc1 (configuration not stated),0.87,-2.4
CCOC(=O)c1cnc2ccc(OCC)cc2c1Nc1cccc(Cl)c1,1,1.1
CCC(C(=O)NC1CCCC1)n1c(SCc2ccc(F)cc2)nc2ccncc21 (configuration not stated),0.96,-1.8
CCOC(=O)N1CCN(c2c(N3CCN(c4cccc(C(F)(F)F)c4)CC3)c(=O)c2=O)CC1,1,1.1
CCS(=O)(=O)N1CCC(C(=O)NCc2cc(OC)ccc2OC)CC1,1,0.71
COc1ccc(NC(=O)CN2C(=O)CC(c3ccc(OC)c(OC)c3)Sc3ccccc32)cc1 (configuration not stated),1,-0.052
O=C(NCCCN1CCCCCC1)c1ccc2c(c1)N(Cc1ccccc1)CCS2,0.75,-0.33
CCOCCOC(=O)c1[nH]c2c(c1C)C(=O)CC(c1ccc(OC)cc1)C2 (configuration not stated),1,1.6
Cc1cc(OCC(=O)Nc2ccc(O)c(-c3nc4ccccc4o3)c2)ccc1Cl,1,0.42

# Continued; the last 5 above are carried over.
SMILES,CBX7 AlphaScr,CBX7 AlphaScr z-score
CCS(=O)(=O)N1CCC(C(=O)NCc2cc(OC)ccc2OC)CC1,1,0.71
COc1ccc(NC(=O)CN2C(=O)CC(c3ccc(OC)c(OC)c3)Sc3ccccc32)cc1 (configuration not stated),1,-0.052
O=C(NCCCN1CCCCCC1)c1ccc2c(c1)N(Cc1ccccc1)CCS2,0.75,-0.33
CCOCCOC(=O)c1[nH]c2c(c1C)C(=O)CC(c1ccc(OC)cc1)C2 (configuration not stated),1,1.6
Cc1cc(OCC(=O)Nc2ccc(O)c(-c3nc4ccccc4o3)c2)ccc1Cl,1,0.42
COc1ccc(NC(=O)c2ccccc2NC(=O)c2cccc(S(=O)(=O)N3CCOCC3)c2)cc1,1,0.27
CCCNC(=O)Cn1cnc2sc(C(=O)NCc3ccccn3)c(C)c2c1=O,0.96,-1.4
COc1ccc(CCN2CC34C=CC(O3)C(C(=O)NCCc3ccc(Cl)cc3)C4C2=O)cc1OC (configuration not stated),1.2,3.5
COc1ccc(Nc2cc(C(=O)NCCCN3CCCCCC3)c3ccccc3n2)cc1OC,0.57,-8.4
Cn1c2ccccc2c2c(C(=O)N3CCCCC3)cn(C3CCCC3)c(=O)c21,0.95,-1.3
O=C(CC1(O)C(=O)Nc2ccccc21)c1cccc(-n2cnnn2)c1 (configuration not stated),0.89,-1.8
Cc1cc(Cl)ccc1OCC(=O)NCCc1nc2ccccc2[nH]1,1,0.042
Cc1c(NC(=O)c2ncn[nH]2)cccc1-c1nc2ccccc2s1,0.18*,-22*
Cc1ccc(N2C(=O)C3C4c5ccccc5C(C(=O)O)(c5ccccc54)C3C2=O)cc1Cl (configuration not stated),0.99,-0.13
COc1ccc(-n2cnc3cc(NC(=O)c4ccccc4)ccc32)cc1,1,0.83
CCOCCCNC(=O)CCC(=O)Nc1ccc2nc(N3CCN(C)CC3)cc(C)c2c1,1.1,2.3
COc1ccccc1C(=O)Nc1ccc(Cl)c(-c2nc3cc(C)ccc3o2)c1,0.99,-0.034
O=C(Cn1nc(-c2ccccc2)ccc1=O)NCC1CCCO1 (configuration not stated),0.99,-0.36
Cc1ccc(C)c(NC(=O)Cn2cc(S(=O)(=O)c3ccc(F)cc3)c(=O)c3ccccc32)c1,1,0.06
COc1ccc(OC)c2[nH]c(=O)c(CCNC(=O)C(C)(C)C)cc12,1,1.1
Cc1nccn1CC(O)COc1ccc(Br)cc1 (configuration not stated),1,-0.17
COc1cc(NC(=O)Cn2cc(S(=O)(=O)c3ccccc3)c(=O)c3ccccc32)cc(OC)c1,0.79,-3
CCOc1ccc(Nc2nc(-c3ccc(Cl)cc3)c(C)s2)cc1,0.93,-1.1
CCOc1cc2c(cc1OC)C(c1ccc(F)c(F)c1)NCC2 (configuration not stated),1,0.26
Cn1c(CN(C(=O)CN2CCCC2)c2ccccc2)c(C#N)c2ccccc21,1,0.44
Cc1ccc(C(=O)CC2(O)C(=O)Nc3c(C)cccc32)cc1 (configuration not stated),1,0.098
CC1CCCC(NC(=O)CNc2ccccc2-c2nc3ccccc3[nH]c2=O)C1C (configuration not stated),1,-0.11
Cc1noc(/C=C/c2cccs2)c1S(=O)(=O)N1CCC(C(=O)N2CCC(C(N)=O)CC2)CC1,1,0.23
CCOC(CNC(=O)CN1C(=O)COc2ccc(S(=O)(=O)N3CCC(C)CC3)cc21)OCC,1,0.54
COc1cc2c(cc1OC)C(C)N(CCC(N)=O)CC2 (configuration not stated),1.1,0.32
CCOC(=O)N1CCc2c(sc(NCc3ccncc3)c2C(=O)Nc2cc(OC)ccc2OC)C1,0.72,-15
CCOc1ccc(OCC)c(NC(=O)C2CCN(S(=O)(=O)c3c(C)noc3C)CC2)c1,1,-0.15
O=C(Nc1ccc(Cl)cc1)C(Cc1ccccc1)NS(=O)(=O)c1cccs1 (configuration not stated),1,0.96
O=C(c1cc(Nc2cccc(C(F)(F)F)c2)nc2ccccc12)N1CCCCC1,1.3,6.3
Cc1ccc(N(CC(=O)Nc2ccc(C)cc2Cl)S(=O)(=O)c2c(C)nn(C)c2C)cc1,1.1,1
O=C(NCCCN1CCN(c2cccc(Cl)c2)CC1)c1cc(-c2cccnc2)nc2ccccc12,0.91,-1.2
Cc1ccc(-c2ccc(=O)n(CC(=O)N3CCN(Cc4ccccc4)CC3)n2)cc1,1,1.4
Cc1ccccc1-n1c(=O)cc(N2CCC(C(N)=O)CC2)[nH]c1=O,1.2,3.3
CCOc1ccc(-c2nc(CSCC(=O)NCc3ccccc3)c(C)o2)cc1,0.84,-1
COc1ccc(-n2c(/C=C/c3cccc4ccccc34)nc3ccccc3c2=O)c(OC)c1,0.94,-0.057
O=C(Nc1ccc(I)cc1)c1ccc2c(c1)NC(=O)c1ccccc1S2,1.1,2.7
O=c1c2ccccc2nc(N2CCN(c3ccccc3)CC2)n1Cc1ccccc1,0.65,-0.74
Cc1cc(C)nc(Sc2nc3ccccc3[nH]2)n1,0.96,-0.92
O=C(COc1ccc(Cl)cc1)Nc1nc(-c2ccc(F)cc2)cs1,1,0.29
O=C(NCC1CCCO1)C1CCN(c2nc3ccccc3[nH]2)CC1 (configuration not stated),0.94,-0.67
CCOc1cccc(-c2cc(C(=O)O)c3ccccc3n2)c1,1.1,1.6
Cc1nnc2ccc(NCCCN3CCN(c4ccccc4F)CC3)nn12,1.1,3.5
CCCCN(C)S(=O)(=O)c1ccc(C(=O)Nc2nc(-c3ccncc3)cs2)cc1,1,0.051
COc1cc2c(C(=O)N3CCN(Cc4ccc5c(c4)OCO5)CC3)cn(CC(C)C)c(=O)c2cc1OC,1,0.0072
CN(C)CCNC(=O)Cn1ncc2c1-c1ccccc1OC2,0.86,-1.8
O=c1c2c(-c3ccc(Br)cc3)csc2ncn1-c1ccccc1,1.1,1.5
O=S(=O)(c1ccc(Br)cc1)N1CCN(c2ccc3nncn3n2)CC1,1,-0.065
COc1ccc(-c2cn3c(C)c(C(=O)Nc4ccccc4)sc3n2)cc1,0.94,-1.2
O=C1CC(c2ccc(Cl)cc2Cl)c2cc3c(cc2N1)OCCO3 (configuration not stated),0.93,-0.6
COc1cccc(Nc2nc(-c3ccc(OC)c(OC)c3)nc3ccccc23)c1,0.98,-0.24
CCN(CC)CCCNC(=O)c1cc(-c2cccc(OC)c2)on1,1.2,1.4
COc1ccccc1-c1csc(NC(=O)c2ccc(S(=O)(=O)N3CCCCC3)cc2)n1,1,0.065
CCc1cc2c(=O)c(-c3nc4ccccc4s3)coc2cc1OC(C)=O,1,0.93
COc1ccc(CCNC(=O)CCc2c(C)nc3cc(-c4ccc(Cl)cc4)nn3c2C)c(OC)c1,1,0.66
CNS(=O)(=O)c1ccc2[nH]c(=O)c(=O)[nH]c2c1,1,0.024
COc1ccc(CNC(=O)c2cc3c(s2)CN(Cc2ccccc2)C3)cc1,0.95,-0.64
CCC(=O)N1CCc2cc(Br)cc(S(=O)(=O)NCCN(C)C)c21,1.1,2.5
CC(=O)NCC(=O)N(C)C(C(=O)Nc1ccc(C(C)C)cc1)c1ccccc1 (configuration not stated),1.2,2.1
CC(=O)Nc1cccc(-c2nc3cc(C)ccc3o2)c1C,1,1
CCC(=O)N1CCc2cc(S(=O)(=O)NCCCOC(C)C)ccc21,0.99,-0.056
# (further entries)
SMILES,CBX7 AlphaScr,CBX7 AlphaScr z-score
COc1ccc(CCNC(=O)C2CCN(c3nn4c(=O)cc(C)nc4s3)CC2)cc1OC,0.98,-0.94
O=C(O)c1cccc(Nc2nc(-c3ccccc3)c3cc(Cl)ccc3n2)c1,1,0.0091
CCc1ccccc1NC(=O)CC1Oc2ccc(C)cc2NC1=O (configuration not stated),1,0.28
CCOc1ccc(NC(=O)C2=CCN(S(=O)(=O)c3ccccc3)CC2)cc1,0.94,-1.1
O=C(NCCc1c[nH]c2ccccc12)C1CCN(c2ccc(N3CCOCC3)nn2)CC1,0.92,-0.76
COCCCNC(=O)c1cnn2c(C)c(Cc3cccc(C)c3)c(C)nc12,1.1,1.1
O=C1CN(C(=O)CCN2CCOCC2)C(c2ccccc2)c2cc(Br)ccc2N1 (configuration not stated),1.1,1.4
O=C(CCn1nc(-c2ccc(Cl)cc2)ccc1=O)NCCN1CCOCC1,1.1,2.8
Cc1ccc(NC(=O)CCc2c(C)nc3cc(-c4cccc(F)c4)nn3c2C)c(Cl)c1,1,0.54
O=C(Nc1cccc(-c2cn3ccccc3n2)c1)c1ccncc1,1,-0.0049
OC(COc1ccc(Cl)cc1)CN1CCN(c2ccccc2)CC1 (configuration not stated),1,0.12
CCCCOc1ccc(NC(=O)c2c(-c3ccccc3Cl)noc2C)cc1,1,0.41
CC(NC(=O)C(NS(=O)(=O)c1ccc2c(c1)CCC(=O)N2)c1ccccc1)c1ccccc1 (configuration not stated),0.97,-0.82
Cc1ccc(-c2nc3ncccc3o2)cc1NC(=O)C(C)C,1,1.4
COc1ccc(-c2noc(COc3cccc(C)c3)n2)cc1,1.3,13
Fc1cccc(Cl)c1-c1nnc2ccc(N3CCOCC3)nn12,1.1,1.8
O=C(Nc1cccc(NCc2cccnc2)c1)c1ccc(Cl)cc1Cl,0.91,-1.1
COc1ccc(NC(=O)CC2C(=O)N(c3cccc(OC)c3)C(=O)N2C(C)C)cc1 (configuration not stated),1.1,2.7
CCC(=O)N1CCc2cc(S(=O)(=O)N3CCCCCC3)ccc21,1.5,1.9
COc1ccc(-c2n[nH]c(C)c2-c2ccc(F)cc2)c(O)c1,0.74,-4

# 7 entries out of the list above, ordered by the value under CBX7 AlphaScr z-score, rising:
compound,CBX7 AlphaScr z-score
Cc1ccc(CN2C(=O)C(C(C)C(=O)NCCCSC3CCCCC3)Sc3ccccc32)cc1 (configuration not stated),-2.4
O=C(NCC1CCCO1)C1CCN(c2nc3ccccc3[nH]2)CC1 (configuration not stated),-0.67
CCC(=O)N1CCc2cc(S(=O)(=O)NCCCOC(C)C)ccc21,-0.056
COc1ccccc1-c1csc(NC(=O)c2ccc(S(=O)(=O)N3CCCCC3)cc2)n1,0.065
Cc1cc(OCC(=O)Nc2ccc(O)c(-c3nc4ccccc4o3)c2)ccc1Cl,0.42
CCN(CC)CCCNC(=O)c1cc(-c2cccc(OC)c2)on1,1.4
CCOCCOC(=O)c1[nH]c2c(c1C)C(=O)CC(c1ccc(OC)cc1)C2 (configuration not stated),1.6

# Carrying on.
SMILES,CBX7 AlphaScr,CBX7 AlphaScr z-score
Cc1cccn2cc(-c3ccc(NC(=O)c4ccccc4F)cc3)nc12,0.96,-1.7
Cc1ccccc1Cc1c(C)nc2c(C(=O)NCCC(C)C)cnn2c1C,0.9,-2.7
COc1cccc(N2C(=O)C(CC(=O)Nc3ccc(F)cc3)N(Cc3ccc(F)cc3)C2=O)c1 (configuration not stated),0.88,-0.53
CCOC(=O)N1CCC(Nc2c(NCCCOC(C)C)c(=O)c2=O)CC1,1,0.17
CCCN(CCC)CC(O)CN(c1ccccc1)S(=O)(=O)c1ccccc1 (configuration not stated),1.4,0.84
COC(=O)c1cc2c(cc1NC(=O)C1CCN(c3nc4ccccc4[nH]3)CC1)OCO2,0.88,-1.4
COc1ccccc1C(=O)NCCc1c(C)[nH]c2ccc(OCc3ccccc3)cc12,0.44*,-8.2*

# Four entries picked at random from those above:
SMILES,CBX7 AlphaScr,CBX7 AlphaScr z-score
Cc1cccn2cc(-c3ccc(NC(=O)c4ccccc4F)cc3)nc12,0.96,-1.7
CCCN(CCC)CC(O)CN(c1ccccc1)S(=O)(=O)c1ccccc1 (configuration not stated),1.4,0.84
CCOC(=O)N1CCC(Nc2c(NCCCOC(C)C)c(=O)c2=O)CC1,1,0.17
Cc1ccccc1Cc1c(C)nc2c(C(=O)NCCC(C)C)cnn2c1C,0.9,-2.7

# Compound activity: PubChem, several laboratories

# Not all compounds are listed, so the mix of outcomes need not match the whole.
